gsp agonist: qHTS for Agonist of gsp, the Etiologic Mutation Responsible for Fibrous Dysplasia/McCune-Albright Syndrome: qHTS; Potency, µM (highest dose often 76.9 µM), inactives show at the top dose activation (cAMP increase), actives largely listed as activators; hit rate 0.13% among 340,000; gsp mutant cells, cAMP HTRF, 30 min; control for the full effect not named in the record; active = well fitted activation curve with a large enough effect; inconclusive = small, poorly fitted or top-dose-only effect, or another doubt; inactive = no such curve, though single readings can be large or run the other way; cell line not stated here;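 note: phosphodiesterase inhibitor Ro 20-1724 added with compounds to block cAMP breakdown; potency is the fitted concentration of half-maximal effect; nearly all actives have a fitted effect of over 60% in size; about a fifth of the inactives were tested at one dose only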
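Cells stably selected in G418 were plated at 2000/well, grown 16-24 hr, then given compounds in DMSO with the PDE inhibitor […] (300 uM solution added) for 30 min at 37C; cAMP was read by HTRF.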
gsp antag: qHTS for Antagonists of gsp, the Etiologic Mutation Responsible for Fibrous Dysplasia/McCune-Albright Syndrome: qHTS. gsp-mutant cells, cAMP HTRF, 30 min; control for the full effect not named in the record. Potency, µM (doses to about 76.9 µM), for the others: at the top dose activity change, negative = inhibition, hits mostly inhibitors. hit rate 0.4% among 340,000. AID 624288, 2012; active = falling curve of any shape with a large fitted effect; inconclusive = falling curve, mostly with a smaller effect; inactive = flat or rising curve; cell line not stated here;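 note: intracellular cAMP measured with PDE inhibitor Ro 20-1724 present during compound exposure; potency is the fitted concentration of half-maximal effect; % is set by controls: 0 for no effect and ±100 for the full control effect; nearly all actives have a fitted effect of over 65% in size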
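Cells, 2000/well, grown 16–24 h in DMEM 10% FBS with 0.5 mg/ml G418, then compounds plus […] (300 uM addition stock), 30 min at 37C. cAMP read by HTRF (cAMP-d2 and anti-cAMP antibody-K in lysis buffer) after 30 min RT.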
Menin MLL FP FL: qHTS Assay for Inhibitors Targeting the Menin-MLL Interaction in MLL Related Leukemias: Competition With Fluorescein Labeled MLL-derived Peptide; Fluorescence polarization, fluorescein-MLL peptide displacement from menin; FP activity change, % at 61.4 µM; 290,000 tested, under 10 active; AID 1766, 2009; inconclusive = falling polarisation curve, or a change in total fluorescence; inactive = total fluorescence flat and polarisation flat or rising; no compound was filed as active; the % refers to the polarisation; negative = inhibition;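 note: % of control where 0% means no effect; inhibitors lower the polarisation; unlabelled MLL peptide was the positive control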
TRPML1 blocker: qHTS for Inhibitors of the Human Mucolipin Transient Receptor Potential 1 (TRPML1); TRPML1-inducible cells, Ca2+ dye fluorescence, FDSS; active compounds read low; inhibition of EC80 agonist-evoked calcium signal; hit rate 0.02% among 390,000; Mucolipin-1 (Homo sapiens), Q9GZU1; AID 624415, 2012; activity change, negative = inhibition, % (concentration not given with the values); in the data active means activity change below about -50%; inconclusive means about -30% to -50%; inactive means above about -30%;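 note: stimulus is agonist 54-4 at its EC80 concentration; % is set by controls: 0 for no effect and ±100 for the full control effect; the text of the record puts the active cut at -80%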
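TRPML1-DL cells, Tet-induced overnight (~16 h, 37 °C) at 1,500 cells/well, were loaded with Ca8 no-wash dye plus quencher for 45-90 min at room temperature. Compounds were pinned during FDSS kinetic reading; agonist 54-4 at EC80 (4 uM final) then added.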
TRPV1 PAM: HTS Assay for Compounds that Act as Potentiators of the Vanilloid Receptor 1; hit rate 0.02% among 320,000; potentiation, % at 8.33 µM; Transient receptor potential cation channel subfamily V member 1 (Homo sapiens), Q8NER1; TRPV1-expressing cells, Fluo-8 calcium influx, capsaicin EC20 potentiation; host cell line not named in the record; control for the full effect not named in the record; active means potentiation above 80%; inconclusive means 30% to 80%; inactive means below 30%; note: 0% is about no effect
Target sequence (Q8NER1 whole entry, looked up): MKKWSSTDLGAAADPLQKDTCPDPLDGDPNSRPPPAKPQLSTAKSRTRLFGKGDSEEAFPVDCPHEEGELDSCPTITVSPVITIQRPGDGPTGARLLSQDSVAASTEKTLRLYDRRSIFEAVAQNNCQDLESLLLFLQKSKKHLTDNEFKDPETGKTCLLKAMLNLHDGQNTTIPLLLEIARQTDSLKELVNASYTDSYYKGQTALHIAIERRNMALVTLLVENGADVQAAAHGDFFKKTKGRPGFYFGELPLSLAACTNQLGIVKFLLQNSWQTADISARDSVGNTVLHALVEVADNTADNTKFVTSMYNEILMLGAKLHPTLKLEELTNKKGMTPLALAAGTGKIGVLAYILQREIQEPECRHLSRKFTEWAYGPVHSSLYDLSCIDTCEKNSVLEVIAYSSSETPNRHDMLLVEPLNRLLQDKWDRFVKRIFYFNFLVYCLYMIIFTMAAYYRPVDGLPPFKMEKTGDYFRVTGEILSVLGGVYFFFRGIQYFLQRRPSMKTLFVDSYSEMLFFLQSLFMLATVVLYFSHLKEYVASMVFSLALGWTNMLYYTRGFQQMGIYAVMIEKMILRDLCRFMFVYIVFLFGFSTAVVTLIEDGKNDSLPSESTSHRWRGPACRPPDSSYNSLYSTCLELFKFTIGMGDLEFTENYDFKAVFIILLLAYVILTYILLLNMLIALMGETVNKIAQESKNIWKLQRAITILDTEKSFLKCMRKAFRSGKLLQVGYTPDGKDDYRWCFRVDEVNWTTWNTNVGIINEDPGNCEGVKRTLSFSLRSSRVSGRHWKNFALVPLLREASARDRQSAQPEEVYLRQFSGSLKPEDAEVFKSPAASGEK
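Cells expressing TRPV1 were dye-loaded with Fluo-8 and read kinetically: 10 s baseline, 3 min after compound (agonist portion), then 2 min after EC20 capsaicin (allosteric enhancer portion). Calcium-bound dye fluorescence at 480/520 nm.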
ClpP mod: qHTS Assay for Activators of ClpP; purified B. subtilis ClpP, FRET peptide cleavage, 20 min; AID 651965, 2013; hit rate 1.9% among 340,000; ATP-dependent Clp protease proteolytic subunit (Bacillus subtilis (strain 168)), P80244; Potency, µM (top dose mostly 57.5 µM), for the others: at the highest dose activity change, negative = active; active = well fitted falling curve with a large enough effect; inconclusive = small, poorly fitted or top-dose-only effect; inactive = no such curve, though single readings can be large or run the other way; note: potency is the fitted concentration of half-maximal effect; the source files actives as falling curves though it sought activators and does not explain the sign; nearly all actives have a fitted effect of over 65% in size; many hits overshoot -100%
Target sequence (P80244 whole entry, looked up): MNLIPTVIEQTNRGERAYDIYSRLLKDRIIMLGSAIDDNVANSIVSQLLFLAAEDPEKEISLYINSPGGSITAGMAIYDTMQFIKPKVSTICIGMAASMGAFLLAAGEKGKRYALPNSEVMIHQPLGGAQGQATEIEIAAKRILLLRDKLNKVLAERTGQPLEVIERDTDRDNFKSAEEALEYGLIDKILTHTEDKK
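Purified B. subtilis ClpP, 10 microg/mL final in Tris/HCl pH8 with KCl, BSA, glycerol and Tween-20, cleaved an Abz/nitrotyrosine-quenched decapeptide. Fluorescence (ex 320, em 430) was read at 0 and 20 min at room temperature. Delta was normalized to 5.8 microM ADEP and DMSO/no-enzyme controls.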
Sfp inh: qHTS Assay for Inhibitors of Bacillus subtilis Sfp phosphopantetheinyl transferase (PPTase); Biochemical Sfp PPTase activity, qHTS; Potency, µM, for the others: max response, negative = inhibition, hits mostly inhibitors; 4'-phosphopantetheinyl transferase ffp (Bacillus subtilis), Q9F4F7; AID 1490, 2009; hit rate 3.5% among 310,000; active = well fitted inhibition curve with a large enough effect; inconclusive = small, poorly fitted or top-dose-only effect, or another doubt; inactive = no such curve, though single readings can be large or run the other way;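 note: the enzyme is Sfp with the accession as filed and its product quenches rhodamine fluorescence; potency is the fitted concentration of half-maximal effect; 0% = enzyme reaction without inhibitor and -100% = no enzyme wells; top concentration of the series not given in the record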
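Sfp 15 nM + cpd, 15 min RT; start w/ rhodamine-CoA 5 uM, BHQ-2-YbbR 12.5 uM (final); 50 mM Hepes pH 7.6, 10 mM MgCl2, 0.01% NP-40, 0.01% BSA; read 525/598 nm at 0 and 30 min.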
Numbers without * were called inactive; ? = inconclusive; / = no result given; & = joins results of further samples; [ ] = another dose, or the depositor's remark.

SMILES | gsp agonist | gsp antag | Menin MLL FP FL | TRPML1 blocker | TRPV1 PAM | ClpP mod | Sfp inh
O=C(Cn1cnc2c(nnn2Cc2ccc(F)cc2)c1=O)N1CCCc2ccccc21 | -25% | -22% | 0.1 | 25 | -22 | 0.6% | -11%
CCN(CCn1cccn1)C(=O)c1cc(COc2cccc3cccnc23)on1 | 27% | 1% | -4.3 | 32 | -5 | / | 11%
O=C(O)c1ccc(Cl)c(S(=O)(=O)N2CCCCCC2)c1 | 29% | -2% | 2.6 | -7 | 15 | 0.1% | 9%
COC(=O)C1CCN(CC(=O)Nc2sc3c(c2C#N)CCC3)CC1 | -40%[inhibitor] | -3% | 4.3 | 25 | 0 | ? | ?
CC1CN(C(=O)c2ccccc2Nc2ccc(SC(F)F)cc2)CC(C)O1 (stereo not given) | 0%[15.4 µM] | -20% | -7.0 | 5 | -14 | / | 11%
O=C(NCCOc1ccc(Cl)cc1)C(=O)NCC1CCCO1 (stereo not given) | 4%[15.4 µM] | 8% | 0.8 | -9 | -1 | / | -2%
COCc1ccc(C(=O)N2CCCCC2C(=O)Nc2ccc(-n3nc(C)cc3C)cc2)o1 (stereo not given) | 20%[15.4 µM] | -8% | / | 20 | 4 | 6.3% | -1%
C/C(=N\NC(=O)c1ccncc1)c1ccc(N2CCOCC2)cc1 | 1% | -14% | / | 4 | -1 | -3.8% | /
COc1ccc(CCNC(=O)C(=O)NCc2ccc(Cl)cc2)cc1OC | -8%[15.4 µM] | 12% | 3.7 | 0 | 2 | / | 20%
CC(C)c1c(C(=O)N/N=C/c2cccc3ccccc23)nnn1-c1nonc1N | 7% | -24% | / | 0 | 7 | -5.9% | 16%
CCOC(=O)C1CCN(c2ncnc3c(C)csc23)CC1 | -22%[15.4 µM] | -23% | 3.6 | 17 | -9 | / | 2%
CCC/C(O)=C1\C(=O)CCCC1=NCCc1c(C)[nH]c2ccc(C)cc12 | -35%[inhibitor] | -11% | -0.2 | -5 | -7 | -0.6% | 20%
CC(NC(=O)c1ccccc1Cl)C(=O)OCc1cn2cc(Cl)ccc2n1 (stereo not given) | 1% | -7% | / | -9 | / | -13% | /
Cc1ccc(C(=O)CSc2nnc(CNc3nc(-c4ccccc4)cs3)n2C)cc1 | 0% | -22% | 6.6 | 0 | 0 | -1.6% | -4%
Cc1cc(NCc2ccccc2)n2ncnc2n1 | -12% | 9% | -0.4 | 19 | -6 | -7.1% | 20%
CCCn1c(C2CCCN2c2nc(-c3ccc(C)cc3)cs2)nc2cc(Cl)c(N3CCCCC3)cc21 (stereo not given) | 5% | -13% | 4.1 | 2 | -3 | -2.2% | -23%
O=C(Nc1ccc2c(c1)OCCO2)C1CCN(S(=O)(=O)c2cccs2)CC1 | -4% | 0% | 2.2 | 15 | -8 | -2.0% | 4%
O=C(O)CSc1ncnc2sc(-c3ccccc3)cc12 | 5%[15.4 µM] | -16% | 5.4 | 5 | -6 | / | 1%
Cc1ccn2c(CNCCn3nc(C)cc3C)c(C(=O)N3CCCCCC3)nc2c1 | ? | -3% | -1.0 | -8 | -9 | -19% | 10%
CCOc1ccc(C(=O)N/N=C(\c2ccccc2)c2ccccn2)cc1 | -2% | -11% | 3.2 | 49 | 25 | -2.0% | -14%
CCOC(=O)c1c(C)[nH]c(NC(=O)NNC(=O)c2ccc(OC)cc2)c1C | ? | -9% | / | -2 | -3 | -3.1% | /
CCC(C)Sc1ccc([C@H]2N[C@@](CC(C)C)(C(=O)OC)[C@H]3C(=O)N(C)C(=O)[C@@H]23)cc1 (stereo not given in full) | 11% | -8% | / | -10 | 22 | -0.9% | /
COc1cccc(C2c3[nH]c4ccccc4c3CCN2Cc2cccn2-c2ncccn2)c1 (stereo not given) | ? | -20% | 7.8 | 7 | 3 | -6.4% | 2%
O=C(Cc1ccc(Cl)cc1)Nc1ccccn1 | -2% | 7% | -9.7 | 8 | 21 | 0.5% | 6%
CC(C)(C)OC(=O)C[C@@H]1C/C=C\C[C@H](CC(=O)N[C@H](CO)Cc2ccccc2)C(=O)N[C@@H](Cc2c[nH]c3ccccc23)COC1=O | ? | -13% | / | -4 | / | 0.4% | /
CCN(CC)c1ccc(CNC(=O)C/C(C)=N/NC(=O)COc2ccc(C)cc2Br)cc1 | 4% | -1% | / | -11 | -10 | / | -3%
O=C(CCCc1ccccc1)c1ccc2c(c1)OCCO2 | -42%[inhibitor] | -7% | 4.6 | 15 | -6 | -4.1% | -17%
COc1cccc(N2CCN(c3ncnc4c3[nH]c3ccc(F)cc34)CC2C)c1 (stereo not given) | -17% | 3.5µM* | 2.8 | -3 | 4 | -14% | 27%
CC(=O)Nc1ccc(S(=O)(=O)N(C)CC(=O)OC(C)C(=O)N(C)Cc2ccccc2)cc1 (stereo not given) | -14% | 5% | 4.0 | -21 | 1 | 1.2% | 13%
COc1ccc(-c2csc3ncnc(N4CCN(CCO)CC4)c23)cc1 | ? | -15% | 1.2 | -2 | 13 | / | 11%
Nc1oc2ccccc2c1C(=O)Cc1ccccc1O[C@@H]1O[C@H](CO)[C@@H](O)[C@H](O)[C@H]1O | -12% | 2% | / | -9 | 5 | 0.9% | /
NC(=O)CSc1nnc(-c2ccccn2)n1N | 8% | 1% | -0.7 | -8 | 26 | 0.9% | -6%
COc1ccc(S(=O)(=O)N2C3CCC2CC(NC(=O)C2CC2)C3)cc1 (stereo not given) | -48%[inhibitor] | -7% | -3.2 | -16 | 11 | -1.2% | 21%
COc1ccc(-n2c(-c3cccc(OC)c3)nc(=S)c3c2CCCC3)cc1 | 8.9µM* | 8% | 4.6 | 6 | 10 | 53% | 3%
O=C1CCN(Cc2ccccc2)S(=O)(=O)c2ccc(C(F)(F)F)cc21 | 7% | -1% | / | -4 | 2 | 0.8%&1.1% | /
CNS(=O)(=O)c1cccc(C(=O)Nc2cccnc2)c1 | -8% | -4%[15.4 µM] | 0.8 | 8 | 5 | -4.1% | -7%
Cc1ccccc1-c1nnc(SCC(=O)NCC2CCCO2)o1 (stereo not given) | -10% | 7% | / | 5 | 17 | 0.7% | /
CCN(CC)S(=O)(=O)c1ccc2c(c1)nc(CCC(=O)Nc1ccc3c(c1)OCO3)n2C | 24% | 10% | 3.7 | 14 | 18 | 0.9% | -13%
Cc1ccc(S(=O)(=O)N2CCOC2CNC(=O)C(=O)NCCc2ccccc2)cc1 (stereo not given) | 19% | -18% | -0.1 | / | 0 | 0.7% | 14%
Cc1ccc(-c2noc(CNC(=O)COc3ccccc3C)n2)cc1 | 1% | 2% | -1.7 | 29 | 2 | -2.7% | -6%
COc1cccc(CC(=O)N2CCCC(CO)(Cc3ccc(F)cc3F)C2)c1 (stereo not given) | -1% | -5% | -4.5 | -11 | -9 | 0.5% | -1%
O=C(Cn1cnc(Cl)c1Cl)c1ccccc1 | -25% | -4% | -0.6 | -5 | -8 | -0.1% | 20%
COc1cccc(/C=C/C(=O)OCC(=O)Nc2ccc3c(c2)OCCO3)c1 | 3% | / | / | -11 | / | ? | /
O=C(NCc1ccncc1)c1cccc(S(=O)(=O)Nc2ccc(SC(F)F)cc2)c1 | 3% | 2% | / | 2 | 0 | 1.2% | /
COc1ccc(CNCCS(=O)(=O)NCc2ccc(OC)cc2)cc1 | / | -2% | / | 1 | / | 0.8% | /
C=C1C(=O)[C@@]23[C@H](O)C[C@@H]4C(C)(C)CC[C@H](O)[C@@]4(C)[C@@H]2CC[C@@H]1[C@H]3O | / | 5% | 3.2 | 27 | 5 | 0.5% | -5%
CCOc1ccc(-n2c(C)c(C(C)=O)c3cc(O)ccc32)cc1 | 7% | -1% | 10 | 4 | -11 | -2.0% | 5%
Cc1nn(-c2ccccc2)c(/N=C/c2ccc(O)cc2)c1-c1ccccc1 | -13% | -11% | 2.8 | 69 | -6 | -1.1% | 11%
CN(N=Nc1ccccc1C(=O)O)C1CCCCC1 | ? | / | / | -21 | / | -17% | /
Cc1cc(C)c(NC(=O)c2ccc(S(=O)(=O)N(C)C)cc2)c(C)n1 | -19% | 6% | -0.3 | 2 | -20 | 1.1% | 13%
O=C(CN1C(=O)NC(Cc2c[nH]c3ccccc23)C1=O)Nc1cccc(S(=O)(=O)N2CCOCC2)c1 (stereo not given) | 6% | 6% | -0.3 | 2 | -7 | 1.9% | 14%
Cc1ccc(C(=O)C(C)OC(=O)CN2C(=O)NC3(CCCC3)C2=O)cc1 (stereo not given) | 3%[15.4 µM] | 4% | / | 0 | 3 | / | /
Cc1ccc(C)c(C(=O)NC2CC(C)(C)NC(C)(C)C2)c1 | 14% | 10% | 1.2 | -1 | -20 | -0.9% | 0%
O=C(c1ccccc1)N1CCN(c2ccc([N+](=O)[O-])c(NCc3cccnc3)c2)CC1 | -18% | -8% | 3.0 | -10 | 6 | -2.0% | 21%
CCOC(=O)c1c(C)n(OCc2ccccc2)c2ccc3c(no[n+]3[O-])c12 | 9% | -11% | 2.2 | 44 | -6 | -0.1% | 79µM*
CCn1ccnc1C(O)c1ccc(N(C)C)cc1 (stereo not given) | -19% | 3% | -4.4 | -13 | 0 | -1.8% | 8%
CC(C)c1nc(SCC(=O)Nc2ccc3c(c2)OCO3)n[nH]1 | ? | -1% | -0.3 | 8 | 15 | 1.6% | 13%
CCN(C(=O)COC(=O)c1ccc2c(c1)OCO2)c1ccc(F)cc1 | 22% | -6% | / | -10 | / | 28µM* | /
